# Bioassay records (PubChem)
# CtBP-E1A inh: CtBP/E1A binding inhibition. AlphaScreen GST-E1A/His-CtBP binding, 1536-well; hits give low values; control for the full effect not named in the record. 340,000 compounds, 0.49% hits. activity change, % (test concentration not listed); in the data active means activity change below about -65%; inconclusive means about -30% to -65%; inactive means above about -30%; note: % is set by controls: 0 for no effect and ±100 for the full control effect
#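 AlphaScreen with 125 nM GST-E1A and 125 nM His-CtBP (5X stocks) in Tris pH 8.0, 300 mM NaCl, BSA, Tween 20, TCEP. Compounds preincubated 2 h at 37 deg C, then glutathione donor/nickel acceptor beads added for 1 h at 37 deg C in dark.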
# Six1-Eya2 inh: inhibitors of human Six1/Eya2 interaction; Q15475+O00167; AlphaScreen GST-Six1/His-Eya2 binding, biochemical; hits give low values; control for the full effect not named in the record; activity change, % (no concentration beside the values); 360,000 compounds, 0.56% hits; AID 651725; in the data active = activity change below about -65%; inconclusive = about -30% to -65%; inactive = above about -30%; note: % is set by controls: 0 for no effect and ±100 for the full control effect
#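 Six1/Eya2 binding was read as AlphaScreen signal after compounds were pinned into GST-Six1 plus His-tagged Eya2 (5X stock 250/500 nM) in pH 8.0 Tris/NaCl/TCEP buffer, beads added, then incubated 1 h, 37 C, dark.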
# TRPML1 ag: human mucolipin-1 channel agonism; Q9GZU1; TRPML1-expressing cells, Ca2+ dye fluorescence, FDSS; host cell line not named in the record; reference of the full effect not given here; activation, % (concentration not given with the values); 410,000 compounds, 0.12% hits; AID 624414; in the data active = activation above about 50%; inconclusive = about 30% to 50%; inactive = below about 30%; note: 0% is about no effect; the text of the record puts the active cut at 80%
# Target sequence (Q9GZU1 whole entry, looked up): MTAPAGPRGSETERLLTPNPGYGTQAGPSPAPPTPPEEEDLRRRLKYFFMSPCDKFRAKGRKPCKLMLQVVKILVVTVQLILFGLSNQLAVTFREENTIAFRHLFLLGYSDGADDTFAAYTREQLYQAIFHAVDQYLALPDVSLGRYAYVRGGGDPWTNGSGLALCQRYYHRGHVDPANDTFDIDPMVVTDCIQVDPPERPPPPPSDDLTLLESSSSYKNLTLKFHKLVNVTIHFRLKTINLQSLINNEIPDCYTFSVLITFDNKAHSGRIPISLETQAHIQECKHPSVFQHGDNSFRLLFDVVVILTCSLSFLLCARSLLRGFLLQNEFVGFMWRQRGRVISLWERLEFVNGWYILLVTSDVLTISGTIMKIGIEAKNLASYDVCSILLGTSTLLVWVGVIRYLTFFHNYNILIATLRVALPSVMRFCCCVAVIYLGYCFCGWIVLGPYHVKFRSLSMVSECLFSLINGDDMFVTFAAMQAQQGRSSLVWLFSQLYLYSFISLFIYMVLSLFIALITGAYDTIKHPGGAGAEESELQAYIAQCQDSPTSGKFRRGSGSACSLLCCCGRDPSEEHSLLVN
#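 In this qHTS format, compounds were pin-transferred onto Ca8-dye-loaded TRPML1-DL cells induced with Tet overnight, and intracellular Ca2+ fluorescence was recorded kinetically for 110 s after a 10 s baseline. A subsequent 4uM final 54-4 (EC80) addition followed by a second 110 s read served as the antagonist phase.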
# TRPML1 inh: inhibitors of human TRPML1 channel; activity change, negative = inhibition, % (no concentration beside the values); TRPML1-inducible cells, Ca2+ dye fluorescence, FDSS; hits give low values; inhibition of EC80 agonist-evoked calcium signal; AID 624415; 390,000 compounds, 0.02% hits; in the data active means activity change below about -50%; inconclusive means about -30% to -50%; inactive means above about -30%;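 note: stimulus is agonist 54-4 at its EC80 concentration; % is set by controls: 0 for no effect and ±100 for the full control effect; compound concentration not given in the record; the text of the record puts the active cut at -80%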
#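 Calcium fluorescence in TRPML1-DL cells induced overnight with Tet: a 110 s read after compound pin addition, then a 110 s antagonist read after challenge with 54-4 at 4 uM final (EC80).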
# PINK1 modulator: modulators of PINK1 expression; PINK1 immunofluorescence, high-content cytometry, 24 h; 410,000 compounds, 0.2% hits; Potency, µM (series often up to 76.6 µM), for inactives: at the top dose activation (PINK1 increase), actives largely listed as activators; active = well fitted activation curve with a large enough effect; inconclusive = small, poorly fitted or top-dose-only effect; inactive = flat fitted curve, though single readings scatter; cell line not stated here;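 note: potency is the fitted concentration of half-maximal effect; % of control where 0% means no effect; nearly all actives have a fitted effect of over 65% in size; a mitochondrial uncoupler was the plate control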
#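 Measures PINK1 amount and localization on or inside mitochondria by immunofluorescence. Stable cells get compounds at 5 concentrations for 24 hours before fixation and staining; CCCP controls included.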
# D2 agonist: agonists of human D2 dopamine receptor (beta-arrestin); P14416; DiscoveRx PathHunter D2 beta-arrestin, luminescence, 90 min; 100% = 57 uM dopamine signal; activation, % (no concentration beside the values); 360,000 compounds, 0.084% hits; AID 624465; in the data active = activation above about 40%; inconclusive = about 15% to 40%; inactive = below about 15%; note: compound concentration not given in the record; the text of the record calls up to 30% inactive
# Target sequence (P14416 whole entry, looked up): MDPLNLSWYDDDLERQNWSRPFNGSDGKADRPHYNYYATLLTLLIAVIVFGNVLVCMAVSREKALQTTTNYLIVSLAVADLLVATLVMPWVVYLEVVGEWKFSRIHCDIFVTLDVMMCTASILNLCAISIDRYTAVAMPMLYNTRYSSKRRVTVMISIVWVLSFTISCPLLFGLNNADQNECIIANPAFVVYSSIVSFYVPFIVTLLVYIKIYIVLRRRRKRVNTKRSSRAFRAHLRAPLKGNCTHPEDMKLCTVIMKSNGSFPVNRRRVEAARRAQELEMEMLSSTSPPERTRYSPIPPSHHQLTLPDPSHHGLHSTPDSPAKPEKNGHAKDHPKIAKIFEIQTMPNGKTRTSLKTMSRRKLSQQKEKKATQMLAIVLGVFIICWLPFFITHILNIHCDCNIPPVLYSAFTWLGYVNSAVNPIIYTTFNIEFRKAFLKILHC
#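 DiscoveRx PathHunter D2 beta-arrestin cells (2,100/well) attached overnight, then compound-stimulated 90 min at 37 C in HBSS/10 mM HEPES/0.1% Tween-20 buffer; beta-galactosidase complementation read by luminescence after 1 h at ambient temperature. Dopamine 57 uM final (EC100) as control.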
# An asterisk follows results filed as active; ? = inconclusive; · = no result given; & = joins results of further samples; [ ] = remark or other dose.
# Values run as follows: CtBP-E1A inh	Six1-Eya2 inh	TRPML1 ag	TRPML1 inh	PINK1 modulator	D2 agonist
CCN1C(=O)C(=O)N(CC(=O)N2CCN(c3ccccc3)CC2)C1=O
    14.2	-3.0	0.3	11.4	-3.5%	-3.2
C=CCNc1nc(NCc2ccco2)nc(OCC)n1
    -2.8	-15.2	0.0	19.9	0.9%	0.3
CON(C)c1nc(Oc2ccc(=O)[nH]n2)nc(N(C)C)n1
    8.9	1.2	-1.0	-10.0	-1.6%	-1.2
O=C(CN1C(=O)C2C3C=CC(C3)C2C1=O)NCc1ccccc1 (configuration not stated)
    2.9	-0.3	0.3	-13.6	3.9%[38.3 µM]	-0.8
CCCNC(=O)c1cccc(C(F)(F)F)c1
    4.1	5.6	0.0	-10.3	5.2%[38.3 µM]	-2.9
CCC1CCCCN1CCCNC(=O)Cn1ncn2nc(-c3ccc(OC)cc3)cc2c1=O (configuration not stated)
    1.1	-0.6	-0.5	1.1	-1.6%	-5.8
Cc1cccc(C(=O)NNc2ncnc3c2cnn3-c2ccc(C)c(Cl)c2)c1
    ·	·	-0.4	27.3	1.9%	·
CCS(=O)(=O)N1Cc2cc(C(=O)NCCOC)nc(-c3cccc(-c4ccncc4)c3)c2[C@@H]1CCO
    0.6	-0.1	-0.1	·	1.2%	·
COc1ccc(-c2cc(C(=O)N3CCCC3)c3ccccc3n2)cc1OC
    -1.4	0.3	0.5	-13.4	1.3%	2.1
O=C(CCNS(=O)(=O)c1ccccc1)NCCSc1ccc(Br)cc1
    0.0	-0.8	-0.7	8.1	-0.5%	8.3

# The final two compounds of the section above open the next one:
# Values run as follows: CtBP-E1A inh	Six1-Eya2 inh	TRPML1 ag	TRPML1 inh	PINK1 modulator	D2 agonist
COc1ccc(-c2cc(C(=O)N3CCCC3)c3ccccc3n2)cc1OC
    -1.4	0.3	0.5	-13.4	1.3%	2.1
O=C(CCNS(=O)(=O)c1ccccc1)NCCSc1ccc(Br)cc1
    0.0	-0.8	-0.7	8.1	-0.5%	8.3
COC(=O)c1ccc(C2c3c(oc4ccccc4c3=O)C(=O)N2CCCN2CCOCC2)cc1 (configuration not stated)
    3.9	-2.3	0.1	-4.8	2.9%	1.6
CCn1c2ccccc2c2cc(NC(=O)c3cccc([N+](=O)[O-])c3C)ccc21
    -3.8	-20.1	0.0	7.5	5.2%	-12.1
O=C(CS(=O)(=O)c1ccc(C(F)(F)F)cn1)NNC(=O)c1ccccc1
    7.1	-0.6	-0.9	-8.9	0.0%	-3.0
COc1ccc(C(=O)Nc2ccc(N3CCOCC3)cc2)cc1S(=O)(=O)N1CCOCC1
    12.4	-4.4	0.0	4.4	4.0%	-4.9
CN(C(=O)c1cc2c(Cl)nc3ccccc3c2s1)c1cccc(C(F)(F)F)c1
    ·	·	-1.1	-2.5	2.6%	·
COCCNC(=O)CSCc1cc(C)cc(C)c1
    2.4	15.9	0.6	14.0	-1.1%	-4.1
Cc1ncc(N=Nc2ccccc2Cl)c(-c2ccccc2)n1
    -66.1*	-69.3*	2.9	-8.5	14.8%	-1.5
CC1(C)Cc2c(ccc3ccccc23)C(=O)N1
    1.2	-1.6	-0.9	-5.7	-2.1%	-0.6
CC(C)CNc1ncnc2c1sc1nc(N3CCOCC3)c3c(c12)CC(C)(C)OC3
    0.8	1.5	-0.1	2.8	2.3%	-3.3
C=CCn1c(C)c(C(=O)OCC)c2cc(O)c3ccccc3c21
    -1.4	4.0	2.3	-0.2	2.0%	14.4
Cc1ccn(C(=O)c2ccc(NC(=O)C3CCCCC3)cc2)n1
    -4.4	14.8	0.1	0.2	1.6%	-2.3
Cc1c(Cl)cccc1NC(=O)CSCC(N)=O
    7.2	1.7	-0.4	3.9	6.4%[38.3 µM]	-3.3
COc1cc(C(=O)NNC(=O)c2cc(S(=O)(=O)N(C)C)ccc2N2CCCC2)cc(OC)c1OC
    -4.7	1.1	0.0	-12.8	-0.8%	-9.3
CCOC(=O)c1sc(NC(=O)C2CC2)cc1C
    7.3	0.8	-0.9	-6.9	-0.8%	-2.7
Cn1c(SCC(=O)N2CCCCC2)nnc1-c1ccc(S(=O)(=O)N2CCOCC2)cc1
    -2.8	4.0	0.0	-11.8	2.3%[38.3 µM]	0.3
COc1ccc(-n2c(=O)c3ccc(C(=O)NCc4ccc(C)cc4)cc3n(CC(=O)Nc3cccc(F)c3)c2=O)cc1
    ·	·	1.6	2.8	3.5%	·
Cc1[nH]c2ccc(F)cc2c1CCN(Cc1cccnc1)C(=S)Nc1cccc(F)c1
    -0.6	-15.1	1.1	29.2	-0.3%	0.4
CC(=O)c1nn(-c2ccccc2)c(=Nc2ccccc2)cc1C
    ?	?	-1.4	·	0.0%	-5.6
CCn1c(C)c(C)c2cc(C(=O)NCc3ccc(N(C)C)cc3)ccc21
    ·	·	3.5	-6.2	0.3%	·
COCCNCC(O)CON=C1c2ccccc2-c2ccccc21 (configuration not stated)
    -8.1	-10.3	-0.2	-17.5	-0.6%	-3.3
CCCCN(CC)CCNC(=O)c1cc2c(-c3ccc(Cl)cc3)nn(C)c2s1
    -11.4	-19.4	0.1&1.6	29.9&14.8	-2.2%&0.2%	74.9*
COc1ccc(/C=C2\SC(=S)N(CCCC(=O)N3CCN(C)CC3)C2=O)cc1
    -24.7	?	0.0	6.0	-0.1%	-1.7
CCc1nc2ccc(C(=O)NCc3ccc(SC)cc3)cc2nc1CC
    ·	·	0.3	-21.4	0.0%	·
CCCCNC(=O)c1cc(C)no1
    -1.6	7.9	0.7	-21.7	-0.3%	-3.0
Cc1ccc(OCC(=O)Nc2ccc(S(=O)(=O)N3CCCC3)cc2)cc1
    1.1	2.9	0.9	12.1	0.6%	4.7
O=C(/C=C/c1ccc([N+](=O)[O-])cc1)N(c1ccccn1)C1CCCCC1
    -2.3	-21.6	0.3	8.9	1.0%	-1.8
CC1CC(C)CN(S(=O)(=O)c2ccc(NC(=S)NC(=O)c3ccccc3)cc2)C1 (configuration not stated)
    5.0	0.3	0.4	13.6	?	-0.9
CCOC(=O)N1CCN(C(=O)C(=O)Nc2ccc3nc4n(c(=O)c3c2)CCCCC4)CC1
    ?	3.6	0.2	-9.8	2.4%	-3.9
CCN(Cc1ccccc1)S(=O)(=O)c1cn(C)cn1
    11.9	7.3	-0.3	57.9	2.4%	-5.0
CC(=O)c1c(C)[nH]c(C(=O)OCC(=O)NCc2ccc(Cl)cc2)c1C
    -1.0	-4.4	-0.1	-3.4	9.4%	0.9
COc1ccc2c(c1)Cc1c-2cc(Br)c(N)c1Br
    -0.1	-6.7	-0.3	1.2	1.6%	-1.5
c1ccc2c(N3CCCCC3)nc(N3CCCC3)nc2c1
    12.3	22.3	1.2	-2.9	-1.8%	-1.4
CCOc1ccc(C(C(=O)NC2CCCCC2)N(C(=O)c2ccccn2)c2cccnc2)cc1 (configuration not stated)
    -1.6	11.7	0.8	47.4	-0.8%	-1.2
CC(=O)Nc1cccc(OCc2ccc([N+](=O)[O-])cc2)c1
    7.1	-2.8	-0.9	6.3	2.8%	-1.9
Cc1ccsc1C(=O)OCC(=O)NCc1ccco1
    5.8	0.1	0.3	-15.5	-0.5%	-3.6
CC(/C=N\NC(=O)c1cc(C)oc1C)=C\c1ccccc1
    3.0	3.5	-0.4	3.7	2.1%	-0.3
Cc1nc2cc(-c3ccc(Br)cc3)[nH]n2c(=O)c1Cl
    ·	0.3	·	·	0.4%	2.5
CC(C)C[C@@H](COc1ccccc1)N1CCN(C)CCC1=O
    -2.6	-3.1	0.1&-0.2	4.1	-0.2%	-4.1
COc1cc(C(O)c2nc(-c3cc4ccccc4o3)cs2)ccc1F (configuration not stated)
    -1.3	-5.9	-0.2	·	10.1%	2.3
Cc1cc(Cl)ccc1NC(=O)CN1C(=O)COc2ccc(S(=O)(=O)Nc3ccccc3)cc21
    ·	·	-0.1	-4.6	0.3%	·
CCOCCCn1c(C)nc2c(c1=O)c1nc3ccccc3nc1n2-c1ccc2c(c1)OCCO2
    0.2	6.9	-0.4	7.6	1.2%	-6.4
O=C(CN1C(=O)NC2(CCSC2)C1=O)N1CCN(c2ccc(F)cc2)CC1 (configuration not stated)
    -2.0	-1.4	-0.4	-5.9	0.2%	-1.8
Cc1ccc(CNC(=O)c2ccccc2N(C)S(C)(=O)=O)cc1
    -9.8	58.3	0.4	-18.6	0.5%	1.9
Cc1cc(SCC(=O)NCCCN2CCCC2=O)nc2ccccc12
    2.4	-1.9	0.2	0.3	1.9%	-0.8
O=C(CCNC(=O)c1ccco1)Nc1cccc(C(F)(F)F)c1
    1.7	-4.6	0.0	1.2	-0.3%	-1.6
COc1ccc(S(=O)(=O)N2CCOCC2)cc1NC(=O)c1sccc1C
    ?	?	0.4	0.5	0.6%	-5.4
COc1ccccc1C(=O)c1nc2ccccc2n1C
    0.7	3.3	-0.9	3.2	0.2%	-4.1
OCCN1CCN(c2ncnc3scc(-c4ccc(F)cc4)c23)CC1
    -7.0	6.0	0.4	-2.3	-1.2%	0.5
CCc1ccc(-n2c(=O)c3c(C)c(C)sc3n(CC(=O)NCC3CCCO3)c2=O)cc1 (configuration not stated)
    0.4	7.5	0.3	14.2	0.7%	-4.4
CC(NC(=O)CN1c2cccc3cccc(c23)S1(=O)=O)c1ccc(S(N)(=O)=O)cc1 (configuration not stated)
    -7.5	-2.7	0.6	21.9	4.0%	4.1

# New compounds follow:
# Values run as follows: CtBP-E1A inh	Six1-Eya2 inh	TRPML1 ag	TRPML1 inh	PINK1 modulator	D2 agonist
Nc1nonc1C(=O)NCCNC(=O)c1ccccc1F
    -2.0	12.2	1.2	-4.7	0.3%	1.7
OCC[C@@H]1C[C@@H](O)[C@H](O)[C@]2(CCCCO2)O1
    6.3	0.1	-0.6	26.1	7.6%	-5.3
CSc1nc2n(n1)C(c1cccs1)C1=C(CCCC1=O)N2 (configuration not stated)
    18.1	7.5	-0.6	1.9	0.3%	-0.7
COc1ccc2nc(/C=N/NC(=O)[C@H](CCSC)NC(=O)OC(C)(C)C)ccc2c1
    -4.7	-24.8	-0.8	-13.4	3.2%	-0.7
CN1C(C(=O)NCC2CC2)CC2Cn3c(nc4cc5ccccc5cc43)C21 (configuration not stated)
    2.8	1.4	-0.5	-10.8	1.9%	0.6
O=C(CSc1nc2ccsc2c(=O)n1Cc1ccc(F)cc1)NCc1ccc(Cl)cc1
    ·	·	0.9	-15.7	-5.2%	·
Clc1cccc(-c2cc3nc4c(c(N5CCN(c6cnccn6)CC5)n3n2)CCCC4)c1
    3.2	4.8	0.9	-5.3	0.2%	-1.4
CCOc1cc(C(=O)OCC(=O)c2c(N)n(C)c(=O)n(C)c2=O)cc(OCC)c1OCC
    1.7	-0.2	0.2	0.3	-5.2%[38.3 µM]	-1.1
O=C(CN1CCN(S(=O)(=O)c2ccc3c(c2)OCCCO3)CC1)N1CCc2ccccc21
    4.1	9.1	-0.8	-1.9	-1.5%	-3.9
COCC(C)n1c(SCC(=O)NC(=O)NCc2ccccc2)nc2ccccc2c1=O (configuration not stated)
    3.6	-6.2	1.1	-1.0	-0.8%	1.9
